Screening results (PubChem BioAssay)
eIF4H FP inh: inhibitors of RNA binding by human eIF4H; Q15056; 290,000 compounds, 0.94% hits; eIF4H fluorescence polarization binding assay; inhibition, % at 35 µM;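 active means 50% or more with normal probe brightness, or confirmed in later tests; inconclusive means above 50% with abnormal brightness, or retests that disagree; inactive means below 50% or failed in later tests; about a fifth of its hits are not listed in these tables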;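 further: calls also rest on retests at 20 µM and on dose response follow-up; 0% = protein and probe with vehicle and 100% = probe without protein; strong numbers were not always called active; many hits fall short of the cut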
HIV Env fusion: inhibitors of HIV Env-mediated cell fusion. HeLa-JRFL Env/CEM21 cell fusion, luciferase. inhibition, % at 12.3 µM. 360,000 compounds, 1.1% hits;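 active means mean replicate inhibition score of at least 50 and every replicate individually at or above 50; inconclusive means only one of the two criteria met; inactive means mean below 50 and not all replicates reaching 50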;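 further: 0% = plate neutral controls and 100% = maraviroc near 300 nM; one replicate is shown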
Rce1 inhib: yeast Ras-converting enzyme inhibition; Q03530; yeast membranes, quenched prenylated peptide cleavage fluorescence; calls only; 290,000 compounds, 0.27% hits; AID 2563;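 active means fall in fluorescence gain of 50% or more versus controls, with final raw signal at or below 3038400; inconclusive means same 50% fall but final raw signal above 3038400; inactive means fall in fluorescence gain under 50%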;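 further: plate controls were neutral control wells for no effect and wells lacking membranes for full effect; tested at 10 µM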
Target sequence (Q03530 whole entry, looked up): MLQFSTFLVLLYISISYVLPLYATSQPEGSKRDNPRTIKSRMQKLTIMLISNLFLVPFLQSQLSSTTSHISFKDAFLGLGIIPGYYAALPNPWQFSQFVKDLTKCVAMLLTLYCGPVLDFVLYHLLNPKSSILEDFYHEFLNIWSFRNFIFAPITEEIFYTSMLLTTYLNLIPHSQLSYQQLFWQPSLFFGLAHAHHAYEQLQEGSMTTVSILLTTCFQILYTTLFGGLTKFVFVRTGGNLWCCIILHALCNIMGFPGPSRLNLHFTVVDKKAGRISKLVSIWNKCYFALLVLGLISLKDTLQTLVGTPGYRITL
Yeast UUG start: yeast start codon fidelity modulation. S. cerevisiae UUG-firefly luciferase reporter, luminescence/redox ratio. activity score, % at 18.7 µM. 350,000 compounds, 0.13% hits;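 active means replicate mean at a twofold rise or more, about +100% in these data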;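 further: firefly luciferase made from a UUG start codon reports start codon fidelity; reporter light over untreated wells divided by growth signal over untreated wells; some hits fall short of that in this replicate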
PABP polyA inh: PABP-poly(A) binding inhibition; P11940; PABP-poly(A) RNA binding, fluorescence polarization; inhibition, % at 35 µM; 290,000 compounds, 1% hits;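 active means 50% or more with normal probe brightness, or confirmed in later tests; inconclusive means above 50% with abnormal brightness, or retests that disagree; inactive means below 50% or failed in later tests; about a fifth of its hits are not listed in these tables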;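 further: calls also rest on retests at 20 µM and on dose response follow-up; controls were probe without protein and protein plus probe with vehicle; some compounds called inactive have numbers as strong as hits; many hits fall short of the cut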
Target sequence (P11940 whole entry, looked up): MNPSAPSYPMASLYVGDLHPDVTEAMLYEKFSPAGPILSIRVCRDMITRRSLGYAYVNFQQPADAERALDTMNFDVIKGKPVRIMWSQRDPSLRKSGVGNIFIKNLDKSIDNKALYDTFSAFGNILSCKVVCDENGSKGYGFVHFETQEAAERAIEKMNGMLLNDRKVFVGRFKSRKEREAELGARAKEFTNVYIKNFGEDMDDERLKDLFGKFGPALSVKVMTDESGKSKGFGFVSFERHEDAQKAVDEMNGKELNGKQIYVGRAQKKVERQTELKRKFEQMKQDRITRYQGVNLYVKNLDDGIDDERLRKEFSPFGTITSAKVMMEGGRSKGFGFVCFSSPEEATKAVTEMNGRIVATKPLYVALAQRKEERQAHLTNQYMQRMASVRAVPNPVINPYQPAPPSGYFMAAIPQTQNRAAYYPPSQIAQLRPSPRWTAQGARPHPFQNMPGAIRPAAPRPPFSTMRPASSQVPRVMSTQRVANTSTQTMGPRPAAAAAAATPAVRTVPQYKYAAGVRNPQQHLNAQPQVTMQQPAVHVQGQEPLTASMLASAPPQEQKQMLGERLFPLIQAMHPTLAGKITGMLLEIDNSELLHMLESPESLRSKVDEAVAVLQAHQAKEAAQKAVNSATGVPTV
MT1-MMP act inh: blocks activation of human MT1-MMP. P50281. HT1080 RFP-PRO-GFP cells, GFP/RFP ratio fluorescence, overnight; percent of plate control window, DMSO zero. GFP/RFP ratio change, % at 20 µM. 360,000 compounds, 0.061% hits;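 active means GFP/RFP ratio change of at least 30% with cell ATP level not reduced by more than half and red fluorescence within 50% of control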; further: strong numbers were not always called active
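Assay system – RFP-PRO-GFP reporter HT1080 cells · Compound dosing – single dose of 20 µM compound, 1% DMSO final · Incubation – overnight compound exposure at 37 °C · Measure – GFP/RFP fluorescence ratio · Benchmarks – DMSO wells and RFP-L50D-GFP cells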
CSC inhib: cancer stem cell inhibition | cancer stem cell-like cells viability, luminescence | inhibition, % at 7.5 µM | 300,000 compounds, 1.1% hits;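 active means mean at 75% or more and at least half the replicates too; inconclusive means mean and replicates disagree; tested in HMLE shEcad cells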;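 further: 0% = median of negative and 100% = median of positive control wells; the first replicate is given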
eIF4H FP inh retest: further read-out of eIF4H FP inh, marked with its call; inhibition, %; compound at 20 µM; confirmation average;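 mean of two retest wells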
PABP polyA inh retest: second read-out of PABP polyA inh, no call of its own (marks repeat the call); inhibition, %; compound at 20 µM; confirmation repeats;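 mean of two retest wells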
MT1-MMP act inh RFP: second read-out of MT1-MMP act inh, no call of its own (marks repeat the call); RFP signal change, %; measured here: RFP expression control read;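 0 = vehicle wells; hits needed this value within 50% of zero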
Starred values were filed as active, the others as inactive; i = inactive; ? = inconclusive; / = no result given.

SMILES	eIF4H FP inh	HIV Env fusion	Rce1 inhib	Yeast UUG start	PABP polyA inh	MT1-MMP act inh	MT1-MMP act inh RFP	CSC inhib	others
Cc1coc2c1c(C)cc1oc(=O)c(CC(=O)NCCCN3CCCC3=O)c(C)c12	86	/	i	-17	2	0	0	-1	eIF4H FP inh retest=-1;PABP polyA inh retest=5
CC1CN(C(=O)CSc2nnc(-c3ccc(Cl)cc3)n2C)CC(C)O1 (stereo not drawn)	15	/	i	-16	62	-1	0	-8	eIF4H FP inh retest=5;PABP polyA inh retest=2
CS(=O)(=O)c1ccc(NS(=O)(=O)c2ccc(Cl)c(C(=O)NC3=NCCS3)c2)cc1	/	-10	/	-18	/	0	-2	-14
COc1ccc(NC(=O)Cn2cc(C(=O)C3CC3)c3ccccc32)cc1	10	13	/	-10	-4	0	2	-10
O=C(/C=C/[C@H]1O[C@@H](n2cnc3c(NC(=O)c4ccccc4)ncnc32)[C@H](O)[C@@H]1O)NCc1ccccc1	/	-13	/	2	/	4	5	/
Nc1cc2c(cc1N)-c1ccccc1C2	/	-17	/	3	/	56	53	/
N#Cc1nc(-c2cccs2)oc1NCc1ccco1	-2	21	?	-2	3	5	8	5
CCOC(=O)C1CCCN(Cc2c(Cl)cccc2Cl)C1 (stereo not drawn)	4	/	i	-18	3	-2	-6	3
Cc1cccc2nc(CNC(=O)C3CCC(=O)N(Cc4ccccc4F)C3)cn12 (stereo not drawn)	-14	/	/	-16	-8	5	1	-4
COc1ccc(CNc2ccc3c(c2)ncn3-c2ccccc2OC)cc1	-1	/	/	/	9	4	-3	-7
Cc1cccc(C2=NN(c3ccc(Br)cc3)[C@@H](C(=O)N3CCOC3=O)[C@@H]2C)c1	/	-242	/	-9	/	0	0	/
COC(=O)N1C(=O)[C@](Cc2ccccc2)(c2ccccc2)N1C(=O)OC	1	-14	i	-6	-1	-2	4	9
COC(=O)c1ccc(/C=N/NC(=S)NC(C)C)cc1	0	32	i	-24	8	4	-5	6
O=C(NCc1ccc(Cl)cc1)c1noc2c1CCCCC2	3	8	i	-15	2	6	2	3
CCOc1ccc(C(CC(=O)O)NC(=O)C(Sc2ccccc2)c2ccccc2)cc1 (stereo not drawn)	-1	-5	i	-21	-7	5	1	-5
C=CCN(CC=C)CC(O)Cn1c2ccccc2c2ccccc21 (stereo not drawn)	3	/	i	/	-4	2	3	15
COC(=O)c1ccccc1NC(=O)COC(=O)c1cccnc1	-2	-133	i	-5	-8	6	8	10
C/C=C/C(=O)Nc1ccc(N2CCN(c3ccc(C(F)(F)F)cn3)CC2)nc1	2	9	i	/	-3	2	-5	4
CC(OC(=O)CCc1nc2ccccc2c(=O)[nH]1)C(=O)Nc1ncc(Cl)cc1Cl (stereo not drawn)	-11	3	i	-1	-18	-1	0	-17
COC(=O)c1ccc(C(NC(=O)OCc2ccccc2)/C(F)=C/[C@@H](C)C(=O)NCc2ccc(-c3ccccc3)cc2)cc1 (stereo partly drawn)	-7	/	/	/	10	/	/	8
O=C(Nc1ccc(N2CCN(C(=O)c3cccs3)CC2)cc1)c1cccnc1	-2	19	i	5	-1	-5	-7	-2
COc1ccc(Oc2coc3cc(OC(=O)N4CCOCC4)ccc3c2=O)cc1	2	/	i	5	6	4	-8	-7
COc1ccc(C(CNc2ncnc3sccc23)N(C)C)cc1OC (stereo not drawn)	0	11	i	-30	8	-5	-3	-12
CCOc1ccc(CCNC(=O)C2=C(C)C(=O)OC23CCC(C)CC3)cc1 (stereo not drawn)	4	-152	i	-14	25	-2	-3	-10
CCOc1ccccc1C(=O)OCC(=O)NCC1CCCCC1	/	8	i	7	/	1	1	-11
O=C(COC(=O)c1nc(Cl)ccc1Cl)NNC(=O)c1ccccc1	/	6	i	-9	/	1	1	-9
COC(=O)c1cc(Br)ccc1OC(=O)c1cccnc1	7	-15	i	-23	0	0	2	-1
COc1ccc(N(CC(=O)NCc2ccccc2Cl)S(=O)(=O)c2c(C)n[nH]c2C)cc1	-11	1	i	-3	0	-5	0	-10
CC1CCN(C(=O)COC(=O)c2cc([N+](=O)[O-])ccc2N2CCOCC2)CC1	/	-87	i	/	/	4	2	-9
C=CCN1C(=O)/C(=C/N(C)C)S/C1=N\S(=O)(=O)c1cccs1	/	-7	/	-20	/	-1	5	/
CCOC(=O)C1=C(c2ccccc2)OC(N)=C(C#N)C1c1ccncc1 (stereo not drawn)	5	11	i	-6	-3	3	1	-12
CCOc1ccc(NC(=O)CN(C)C(=O)CSCc2c(C)noc2C)cc1OCC	/	6	i	-11	/	0	1	0
COc1ccc(-c2noc(CCC(=O)Nc3cc(OC)ccc3OC)n2)cc1	1	/	i	8	-2	0	-4	1
C/C(=N/NC(=O)c1ccc2c(c1)OCO2)c1cccc(NC(=O)C(C)(C)C)c1	-7	-46	i	-17	-5	6	8	-2
Cc1ccc(-c2nn(-c3ccccc3)cc2C(=O)NCCCN2CCOCC2)cc1	1	/	i	-19	-4	1	0	/
COc1cc(NC(=O)NCC2CCN(Cc3ccc(C)cc3)CC2)cc(OC)c1OC	-2	-1	i	-9	-1	1	3	-3
CCCn1nc(C(=O)OCC(=O)Nc2ccc(C)cc2)c2ccccc2c1=O	/	6	/	-10	/	1	-2	-6
[O-][n+]1nc2ccccc2c2ccccc21	/	-57	/	-13	/	0	1	/
CC1(c2ccc(Cl)cc2)NC(=O)N(CC(=O)NCCC2=CCCCC2)C1=O (stereo not drawn)	/	/	/	-3	/	-9	-5	6
Fc1cc(Br)ccc1Nc1nc2ccccc2n2nnnc12	-4	-32	i	-20	8	2	7	-1
CCOC(=O)n1c(SCC(=O)N(CC)CC)nc2ccccc21	2	/	i	-2	-4	-1	-1	/
CCC(=O)N1c2ccc(S(=O)(=O)N3CCOCC3)cc2CC1C (stereo not drawn)	-7	4	i	/	7	2	6	-1
COc1ccc(C(CNC(=O)c2cccc(NS(=O)(=O)c3ccc(C)c(F)c3)c2)N(C)C)cc1 (stereo not drawn)	/	-6	i	-15	/	3	0	-4
O=C(CNC(=S)N(Cc1ccccc1)Cc1ccccc1F)NCCc1ccc(Cl)cc1	5	?	i	6	8	-5	-12	?
CC(=O)N1C[C@H]2CON(C)[C@H]2C[C@H]1c1cccc(-c2cc(Cl)cc(Cl)c2)c1	/	22	/	5	/	-2	-11	/
NC(=S)N/N=C/c1ccc(-c2ccccc2)o1	-5	20	i	/	0	0	-2	-15
Cc1cccc(OCC(=O)NCC(=O)N/N=C/c2ccccc2)c1	-6	-7	i	-11	-2	-1	1	-9
Cc1cc(S(=O)(=O)N2CCCC2)ccc1OCC(=O)N1CCCCC1	-7	5	i	9	-7	2	-2	-10
CCC(CO)NC(=O)c1cccc(S(=O)(=O)N2c3ccccc3CC2C)c1 (stereo not drawn)	-11	/	i	3	-3	-5	-2	/
COc1cccc(CNC(=O)CCNS(=O)(=O)c2cccc3nonc23)c1	-6	-4	i	-13	2	0	2	-13
O=c1ncn(-c2cccc(Cl)c2)c2ccccc12	/	-15	i	/	/	0	2	-11
C#CCN1C(=O)C(O)(CC(=O)/C=C/C=C/c2ccccc2)c2ccccc21 (stereo not drawn)	7	-9	i	/	14	-13	-2	5
COCCCNC(=O)C(=O)NC1CCCCC1C (stereo not drawn)	4	2	i	/	8	-2	5	-11
O=[N+]([O-])c1ccccc1S(=O)(=O)Oc1ccc(C(=S)N2CCOCC2)cc1	-2	17	i	/	-4	5	-3	-9
O=C(Nc1ncccc1O)c1ccc(Cl)c(S(=O)(=O)N2CCCCC2)c1	/	-39	i	/	/	5	-5	/
O=P1(Nn2cnnc2)C=C(c2ccccc2)OC(c2ccccc2)=C1	-8	/	i	-9	8	0	0	-10
CC(=O)Nc1ccc(S(=O)(=O)N2CCc3c(Cl)cccc3C2)cc1	11	-2	i	-4	-1	1	-14	1
CC1CN(S(=O)(=O)c2cccc(C(=O)OCC(=O)NCc3ccccc3)c2)CC(C)O1 (stereo not drawn)	/	/	/	-8	/	1	7	-15
CC(C)c1ccc(NC(=O)CSc2nc(-c3ccccc3F)nc3nc[nH]c23)cc1	3	7	i	/	5	-2	-1	/
CC(=O)c1cccc(NC(=O)CCN2C(=O)C3C4CCC(C4)C3C2=O)c1 (stereo not drawn)	-6	5	i	-16	0	2	5	13

Sorted by SMILES length (ascending): 4 of the compounds above.
SMILES	eIF4H FP inh	HIV Env fusion	Rce1 inhib	Yeast UUG start	PABP polyA inh	MT1-MMP act inh	MT1-MMP act inh RFP	CSC inhib	others
CCC(=O)N1c2ccc(S(=O)(=O)N3CCOCC3)cc2CC1C (stereo not drawn)	-7	4	i	/	7	2	6	-1
O=P1(Nn2cnnc2)C=C(c2ccccc2)OC(c2ccccc2)=C1	-8	/	i	-9	8	0	0	-10
COc1cccc(CNC(=O)CCNS(=O)(=O)c2cccc3nonc23)c1	-6	-4	i	-13	2	0	2	-13
CC(=O)c1cccc(NC(=O)CCN2C(=O)C3C4CCC(C4)C3C2=O)c1 (stereo not drawn)	-6	5	i	-16	0	2	5	13

Next section.
SMILES	eIF4H FP inh	HIV Env fusion	Rce1 inhib	Yeast UUG start	PABP polyA inh	MT1-MMP act inh	MT1-MMP act inh RFP	CSC inhib	others
CCC(=O)Nc1ccc(NC(=O)CSc2nnnn2-c2ccc3c(c2)OCCO3)cc1	9	21	i	/	-16	7	-8	5
CC(C)(C)OC(=O)NCCCC[C@@H](C(=O)NCCCCCCCCCCC(=O)N1CCN(C(=O)OC(C)(C)C)CC1)n1cc(CCO)nn1	/	5	i	-7	/	8	-14	-28
CCOC(=O)CSc1nc(C(C)C)nc2sc(C)c(C)c12	-11	3	i	/	4	0	-1	/
Cc1ccccc1-c1nc(CS(=O)CC(=O)NCc2ccccn2)c(C)o1 (stereo not drawn)	-4	-5	i	-12	3	0	5	-3
Clc1ccccc1Cn1nnc2c(NCC3CC3)ncnc21	-7	-5	/	-17	-3	2	0	-2
S=C(NCCCc1ccccc1)NC1CCCCC1	-1	-25	i	-37	6	2	1	-10
COc1cc(OC)c(OC)cc1CNC(=O)CCN1C(=O)c2cccc([N+](=O)[O-])c2C1=O	-2	8	i	-11	2	2	2	-5
Cn1c(SCc2cccc(Br)c2)nc2ccccc2c1=O	-6	16	i	-17	7	-4	-21	-3
O=C(/C=C/[C@H]1O[C@@H](n2cnc3c(NC(=O)c4ccccc4)ncnc32)[C@H](O)[C@@H]1O)NCC1CCCCC1	/	-14	/	-4	/	4	6	/
COc1ccccc1Nc1nc(-c2sc(NC(=O)c3ccccc3)nc2C)cs1	-7	-30	i	-20	-2	-2	2	20
C=CCOc1cccn2c(N(C=O)Cc3ccccc3)c(CC)nc12	/	14	/	-13	/	-1	-3	/
Cc1nc(SCC(=O)Nc2ccnc3ccccc23)n[nH]1	-4	27	i	/	5	-4	-9	-5
Clc1ccc(C2=Nn3c(nnc3-c3cccnc3)SC2)s1	-6	-3	i	-18	3	0	-12	-2
O=S(=O)(Cc1ccccc1Cl)NCc1ccccc1	-4	0	i	-6	18	-1	-3	2
O=C1C(=O)N(C2CCCC2)C(=O)N1Cc1c(F)cccc1Cl	-1	10	i	/	13	0	0	/
Cc1ccc(C(=O)NC(=S)NNC(=O)COc2ccccc2C)cc1	0	-1	i	/	-3	-4	-5	14
COC(=O)C1=C(N)c2c(F)cccc2C1(C#N)c1ccc(F)cc1 (stereo not drawn)	-5	/	i	-7	-2	-5	-6	4
